# NS1 function inh: inhibitors of influenza NS1 protein function; S. cerevisiae slowed by influenza A NS1, growth recovery by OD600; Potency, µM (doses to about 46.1 µM), inactives show top-dose activity, positive = more growth; actives 0.4% (n = 270,000); note: actives are rising curves; nearly all actives have a fitted effect of over 50% in size
#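 S. cerevisiae expressing influenza A NS1, grown in glucose, washed, then diluted 1:100 into pH 6.0 -URA galactose medium with 23 nl compound. Growth recovery read as OD600; NS1-free strain serves as control.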
# 2A StopGo: FMDV 2A StopGo reporter, luciferase signal; Potency, µM (highest dose often 57.9 µM), without a hit: at the highest dose signal change, negative = less light; actives 1.2% (n = 410,000); human cells with a luciferase reporter of 2A StopGo recoding; control for the full effect not named in the record; active = well fitted falling curve with a large enough effect; inconclusive = small, poorly fitted or top-dose-only effect; inactive = no such curve, though single readings can be large or run the other way; tested in HEK293T cells; note: % is set by controls: 0 for no effect and ±100 for the full control effect; nearly all actives have a fitted effect of over 45% in size; luciferase light after 4 h
# Cruzain noTriton: blocks cruzain activity in detergent-free assay. purified cruzain, Z-FR-AMC fluorescence, no detergent. actives 2.3% (n = 200,000). P25779. Potency, µM, inactives show max response, negative = inhibition, actives largely listed as inhibitors; active = well fitted curve in the direction sought with a large enough effect; inconclusive = small, poorly fitted or top-dose-only effect, or another doubt; inactive = no such curve, though single readings can be large; an effect the other way counts as inactive or inconclusive;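 note: plate controls were enzyme without inhibitor for no effect and buffer without enzyme for full effect; nearly all actives have a fitted effect of over 40% in size; top concentration of the series not given in the record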
# Target sequence (P25779 123-467 limits assumed): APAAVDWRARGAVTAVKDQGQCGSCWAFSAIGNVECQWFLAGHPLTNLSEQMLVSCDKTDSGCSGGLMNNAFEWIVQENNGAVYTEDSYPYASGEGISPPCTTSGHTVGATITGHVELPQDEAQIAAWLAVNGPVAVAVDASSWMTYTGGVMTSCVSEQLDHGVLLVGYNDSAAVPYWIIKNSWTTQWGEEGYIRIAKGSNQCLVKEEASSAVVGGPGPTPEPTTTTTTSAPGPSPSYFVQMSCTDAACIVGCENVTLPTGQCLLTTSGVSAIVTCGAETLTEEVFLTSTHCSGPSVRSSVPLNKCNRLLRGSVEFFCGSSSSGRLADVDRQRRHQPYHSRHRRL
#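 Purified cruzain at 1.5 nM, pre-incubated 15 min with compound at room temperature in 100 mM sodium acetate pH 5.5, 5 mM DTT, 0.00005% Triton X-100. Reaction started with 2 uM Z-FR-AMC; AMC fluorescence increase over 60 s gives rate.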
# Marburg entry inh: blocks Marburg virus binding to or entry into cells; AID 540276; Marburg virus pseudotyped entry inhibition, cell reporter; control for the full effect not named in the record; about a third of the inactives were read at about 46 µM; actives 1.8% (n = 300,000); Potency, µM (series often up to 37.8 µM), inactives show top-dose activity change, negative = inhibition, hits mostly inhibitors; active = well fitted inhibition curve with a large enough effect; inconclusive = small, poorly fitted or top-dose-only effect, or effect the other way; inactive = flat fitted curve, though single readings scatter; tested in HEK293 cells; about a fifth of its hits are not listed in these tables; note: % is set by controls: 0 for no effect and ±100 for the full control effect; luciferase read-out
# RE007 growth inh: less growth of the S. pombe RE007 Vpr strain. S. pombe RE007 Vpr strain, BacTiter-Glo ATP luminescence, 24 h; control for the full effect not named in the record. Potency, µM (titrated, usually from 92.2 µM), without a hit: top-dose activity change, negative = less growth. actives 0.21% (n = 360,000). AID 651644; active = well fitted falling curve with a large enough effect; inconclusive = small, poorly fitted or top-dose-only effect; inactive = no such curve, though single readings can be large or run the other way;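 note: % is set by controls: 0 for no effect and ±100 for the full control effect; nearly all actives have a fitted effect of over 50% in size; the assay follows cell death caused by Vpr and the record does not say whether a fall means rescue or toxicity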
#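 Fission yeast strain RE007, carrying one chromosomally integrated HIV-1 vpr copy, was seeded at OD 0.01 in PMG+AL medium with 23 nL pinned compound. After 24 h at 30 °C and 99% humidity, viability was read by BacTiter-Glo luminescence.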
# Cruzain Triton: cruzain (T. cruzi) inhibition with detergent | P25779 | purified cruzain, Z-FR-AMC fluorescence, 0.01% Triton | Potency, µM, for the others: max response, negative = inhibition, usual class: inhibitors | actives 0.43% (n = 200,000) | AID 1478; active = well fitted curve in the direction sought with a large enough effect; inconclusive = small, poorly fitted or top-dose-only effect, or another doubt; inactive = no such curve, though single readings can be large; an effect the other way counts as inactive or inconclusive;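 note: plate controls were neutral wells for no effect and buffer without enzyme for full effect; nearly all actives have a fitted effect of over 40% in size; top concentration of the series not given in the record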
#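 Detergent-containing arm of a paired screen for aggregation-based inhibition: 0.01% Triton X-100 present. Cruzain at 1.5 nM cleaved 2 uM Z-FR-AMC at pH 5.5 with 5 mM DTT; AMC fluorescence gain over 60 s measured activity.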
# SARS PLP yeast: blocks SARS-CoV papain-like protease in a yeast assay. S. cerevisiae expressing SARS-CoV PLpro, growth rescue; control for the full effect not named in the record. Potency, µM (highest dose often 32.9 µM), for inactives: at the top dose activity, positive = growth rescue. actives 0.19% (n = 330,000); note: 0% is about no effect; nearly all actives have a fitted effect of over 55% in size; growth read by luminescence after 48 h
# Lassa entry inh: blocks Lassa virus binding to or entry into cells | Lassa virus pseudotype entry inhibition, cell reporter; control for the full effect not named in the record | Potency, µM (doses to about 37.9 µM), without a hit: at the top dose activity change, negative = inhibition, usual class: inhibitors | actives 1.2% (n = 300,000); active means well fitted inhibition curve with a large enough effect; inconclusive means small, poorly fitted or top-dose-only effect, or effect the other way; inactive means flat fitted curve, though single readings scatter; tested in HEK293 cells; note: % is set by controls: 0 for no effect and ±100 for the full control effect; nearly all actives have a fitted effect of over 50% in size; luciferase read-out
# Active calls of the source: *; ? = inconclusive; nt = no result given; & = joins results of further samples; [ ] = remark or other dose. Unless noted, calls come from the whole dose curve; as a rule, active means well fitted rising curve with a large enough effect; inconclusive means small, poorly fitted or top-dose-only effect; inactive means no such curve, though single readings can be large or run the other way. Potency is the fitted concentration of half-maximal effect.
# The opening two records as a preview:
# Below each SMILES: NS1 function inh	2A StopGo	Cruzain noTriton	Marburg entry inh	RE007 growth inh	Cruzain Triton	SARS PLP yeast	Lassa entry inh
(1) CCCCN=C1NN=C(c2ccc3c(c2)OCCO3)CS1
    nt	?	nt	?	-13%	nt	1%	7.9µM*
(2) CCc1ccc(OCC(=O)O/N=C(\N)c2ccncc2)cc1
    -32%	2%	nt	?	-5%	nt	-6%	?

# The whole of this part, repeating the preview:
# Below each SMILES: NS1 function inh	2A StopGo	Cruzain noTriton	Marburg entry inh	RE007 growth inh	Cruzain Triton	SARS PLP yeast	Lassa entry inh
(1) CCCCN=C1NN=C(c2ccc3c(c2)OCCO3)CS1
    nt	?	nt	?	-13%	nt	1%	7.9µM*
(2) CCc1ccc(OCC(=O)O/N=C(\N)c2ccncc2)cc1
    -32%	2%	nt	?	-5%	nt	-6%	?
(3) CCC1(C)CC(=O)N(c2ccc(C(=O)O)c(O)c2)C1=O (stereo not drawn)
    -9%	-23%	5%	?	6%	1.5%	-10%	0%
(4) Cc1cc(-c2c(C(=O)N3CCOCC3)c(C)nn2-c2cccc(C(F)(F)F)c2)no1
    -2%	-7%	nt	3%[46.1 µM]	2%	nt	0%	27%[46.1 µM]
(5) COc1cc(NC(=O)CN2CCN(c3ccccc3)CC2)c(C)cc1[N+](=O)[O-]
    9%	-27%	?	2%	1%	-1.3%	10%	0%
(6) COc1ccc(NC(=O)C2CC(=O)N=C(N)S2)cc1 (stereo not drawn)
    4%	10%	nt	7%[46.1 µM]	4%	nt	1%	27%
(7) COc1ccc(-n2c(=S)[nH]c3cc(C(=O)Nc4cc(OC)c(OC)c(OC)c4)ccc3c2=O)c(OC)c1
    nt	-20%	nt	?	0%	nt	6%	2%
(8) COc1ccc(/C=N/NC(=O)c2cccc(Br)c2)cc1COc1ccccn1
    -4%	-2%	nt	2%[46.1 µM]	0%	nt	5%	-11%
(9) COc1ccccc1NC(=O)c1ccc(NC(=O)CSc2n[nH]c(N)n2)cc1
    29%	-7%	-16%	-4%	7%	-1.2%	5%	9%
(10) CC(=O)N1CC=CC1(C)C(=O)O (stereo not drawn)
    8%	4%	3%&-1%	1%	7%	1.0%&-0.6%	24%	0%
(11) COc1cccc(C2(O)CCN(C(=O)C3CCC3)CC2)c1
    3%	-11%	2%	?	-16%	14%	-1%	4%
(12) Cc1ccc(C(=O)NCC(=O)OCC(=O)NC2CCCCCCC2)cc1
    15%	2%	nt	0%[46.1 µM]	-1%	nt	3%	-8%[46.1 µM]
(13) COc1ccc(C2C(C#N)=C(N)Oc3cc(O)ccc32)cc1OC (stereo not drawn)
    0%	-22%	-2%	?	-4%	0.1%	0%	-15%
(14) Cc1cccc(OCC(=O)NCCN2CCOCC2)c1
    1.8µM*	-8%	3%	14%	-9%	7.6%	nt	-2%
(15) CCCCc1n[nH]c(=S)n1Cc1ccc(C)cc1
    nt	-17%	nt	12%[46.1 µM]	1%	nt	23%	13%
(16) CCCc1nc2ccccc2c(C(=O)N(CC)CC(=O)NCc2cccs2)c1CC
    nt	0%	nt	1%[46.1 µM]	-9%	nt	-4%	1%
(17) Cc1ccc(CN(Cc2ccco2)C(=O)c2ccco2)cc1
    -25%	0%	nt	nt	2%	nt	-2%	nt
(18) CCC(c1nnc(SCC(=O)Nc2cccc(S(N)(=O)=O)c2)n1-c1ccc(OC)cc1)N(C)C (stereo not drawn)
    14%	8%	nt	-12%[46.1 µM]	-4%	nt	0%	-7%[46.1 µM]
(19) CC1=NN(c2ccc(C(F)(F)F)cn2)C(=O)C1
    8%	-5%	8%	?	-9%	1.5%	-117%	?
(20) C=CCNC(=O)c1cc2cccc(OC)c2oc1=O
    nt	5%	nt	4%[46.1 µM]	32%	nt	-1%	25%
(21) COc1ccc(-n2nnc3c(SCC(=O)N4CCCc5ccccc54)ncnc32)cc1
    nt	-19%	nt	-12%	-9%	nt	nt	-2%
(22) COc1cc(C2C(C(=O)OCC(C)C)=C(C)N=C3SCCC(=O)N32)ccc1OCc1ccccc1 (stereo not drawn)
    nt	-8%	25%	?	nt	-4.6%	nt	-5%[46.1 µM]
(23) COc1cc(C(=O)OCC(=O)NC2CCS(=O)(=O)C2)ccc1OCc1c(C)noc1C (stereo not drawn)
    2%	-5%	-12%	-1%	9%	3.7%	-14%	7%
(24) COc1ccc(NC(=O)COc2nsnc2N2CCCCC2)cc1
    -8%	?	-6%	-30%	3%	-7.4%	-7%	-10%
(25) Cc1cccc(OCc2ccc(-c3nc(C#N)c(NCCN(C)C)o3)o2)c1
    nt	-12%	2%	?	nt	-3.8%	nt	13%[46.1 µM]
(26) CC(C)CNC(=O)CC(c1ccccc1)c1ccccc1
    5%	-2%	nt	11%[14.2 µM]	0%	nt	-1%	-6%
(27) COc1cccc(Oc2c(C)oc3c(CN4CCCC4)c(O)ccc3c2=O)c1
    -1%	-10%	nt	nt	1%	nt	4%	nt
(28) COc1ccccc1N1CCN(C(=O)CNC(=O)Cn2cnc3sc(C)c(C)c3c2=O)CC1
    -3%	37%[activator]	nt	-13%[46.1 µM]	0%	nt	-11%	-8%[46.1 µM]
(29) NC(=O)c1ccc(N2CCOCC2)nc1
    1%	-24%	nt	25%	19%	nt	-1%	21%
(30) CCCc1cc(C(=O)Nc2ccccc2SC)no1
    -41%	50%[activator]	13%	nt	-20%	-5.1%	-25%	nt
(31) O=C(CSc1ccc(-c2ccco2)nn1)NCc1ccccc1
    10%	-15%	3%	23%	-12%	-12%	11%	11%
(32) O=C1CN(C(=O)COC(=O)c2cccc(S(=O)(=O)NCc3ccccc3)c2)c2ccccc2N1
    3%	22%	0%	-19%	-2%	-1.0%	-3%	-3%
(33) CCOC(=O)c1nc2sc(C)c(C)c2c(=O)[nH]1
    -10%	17%	-11%	17%	2%	-14%	0%	-3%
(34) Cc1ccc(C)c(CN2C(=O)C3(c4ccccc42)N(c2ccc(Cl)cc2)C(=O)CS3(=O)=O)c1 (stereo not drawn)
    nt	-21%	3.2µM*	nt	nt	-3.3%	nt	17%[46.1 µM]
(35) O=C(Cn1nc(C(F)F)cc1C(F)F)NNC(=S)Nc1ccc(Cl)cc1
    -14%	-15%	3%	-4%	-7%	-0.7%	3%	5%
(36) CC(SC1=Nc2ccccc2C2CC=NN12)C(=O)NC1(C#N)CCCCC1 (stereo not drawn)
    nt	-10%	nt	0%	-17%	nt	0%	-28%
(37) CCOC(=O)C1(Cc2ccc(OC)cc2)CCN(C(=O)c2cc(C)on2)CC1
    -6%	37%[activator]	nt	nt	3%	nt	13%	nt
(38) CCOc1ccc(C2=[N+]([O-])C(C)(C)N(O)C2(C)C)cc1
    -3%	39%[activator]	-5%	4%	22%	5.8%	2%	0%
(39) Cc1ccc(NC(=O)C2CC2)cc1S(=O)(=O)N1CCOCC1
    nt	13%	nt	?	-9%	nt	-1%	0%[46.1 µM]
(40) CC(C)CC1(C)NC(=O)N(Cc2cc([N+](=O)[O-])cc3c2OCOC3)C1=O (stereo not drawn)
    4%	-22%	nt	0%	-4%	nt	0%	-4%
(41) O=C(Nc1ccc(O)c(-c2nc3ccccc3o2)c1)C1(c2ccccc2)CCCC1
    ?	-15%	25µM*	?	6%	-0.5%	-1%	-36%
(42) CC1CCCCN1S(=O)(=O)c1ccc(C(=O)Nc2nnc(-c3ccccn3)o2)cc1 (stereo not drawn)
    nt	5%	nt	?	-11%	nt	-3%	-15%[46.1 µM]
(43) C=CCOc1ccc(NC(=O)C(=O)NCCCn2ccnc2)cc1
    -5%	12%	1%	8%	-11%	0.6%	-2%	-2%
(44) COc1ccccc1N1CCN(C(=O)COc2ccccc2C#N)CC1
    nt	-11%	-8%	0%[46.1 µM]	nt	-0.9%	nt	nt
(45) CC(Sc1ncc(C#N)c(N)n1)C(=O)Nc1ccccc1 (stereo not drawn)
    -11%	-10%	0%	29%[46.1 µM]	6%	5.5%	3%	1%
(46) Cc1cc(=O)[nH]c(SCC(=O)c2ccc(C)c(C)c2)n1
    -16%	3%	-7%	1%	2%	-10%	-16%	-1%
(47) Cc1ccc(OCC(=O)N2N=C(c3ccncc3)CC2(O)C(F)(F)F)cc1C (stereo not drawn)
    -2%	-6%	nt	nt	-6%	nt	1%	nt
(48) C=CCn1c(SCC(=O)N(C)C2CCS(=O)(=O)C2)nnc1-c1ccncc1 (stereo not drawn)
    11%	-4%	8%	-4%	-13%	2.5%	-8%	1%
(49) CCOc1ccc(S(=O)(=O)N2CCC(C(=O)NCCc3ccc(S(N)(=O)=O)cc3)CC2)cc1
    1%	20%	nt	nt	10%	nt	1%	nt
(50) CCN(CC)c1ccc(NC(=O)CN2CCN(c3ccccc3F)CC2)cc1
    -20%	-18%&-3%	1%&-7%	-19%&-19%	-5%	0.4%&-1.3%	?	?
(51) Cc1cc(NC(=O)CSc2nnc(CNC(=O)c3c(F)cccc3F)o2)no1
    -5%	32%[activator]	nt	nt	12%	nt	2%	nt
(52) CC(=O)N1CCCc2ccc(NS(=O)(=O)c3cccc(Cl)c3)cc21
    nt	0%	-1%	nt	nt	-3.2%	nt	-4%[46.1 µM]
(53) C[C@H](N)c1nnc(SCC(N)=O)o1
    4%	10%	nt	17%[46.1 µM]	-6%	nt	1%	7%[46.1 µM]
(54) N=C1C(c2nc3ccccc3s2)=C(O)CN1NC(=O)c1ccc([N+](=O)[O-])cc1
    nt	?	nt	?	-7%	nt	-3%	?
(55) CCCCN(CC)S(=O)(=O)c1c(C)[nH]c(=O)[nH]c1=O
    nt	-5%	nt	-9%[46.1 µM]	4%	nt	-1%	0%[46.1 µM]
(56) O=C(c1cc(COc2ccc(F)cc2Cl)on1)N(Cc1ccncc1)CC1CCCO1 (stereo not drawn)
    0%	-15%	nt	-15%[46.1 µM]	-2%	nt	0%	?
(57) COC(=O)C1(C)NC(c2ccc(C)cc2)C2C(=O)N(c3ccc(F)cc3)C(=O)C21 (stereo not drawn)
    6%	8%	nt	nt	-1%	nt	5%	nt

# High-throughput results from PubChem.

# Random draw from the library. Share with any hit: about 4.6%.
